VDR inhibitor: vitamin D3 receptor (human) inhibition; P11473; VDR-SRC2-3 peptide fluorescence polarization, 2 h; Potency, µM, without a hit: max response, negative = inhibition, most hits filed as inhibitors; 0.93% of 400,000 active; active means well fitted inhibition curve with a large enough effect; inconclusive means small, poorly fitted or top-dose-only effect, or another doubt; inactive means no such curve, though single readings can be large or run the other way; further: series mostly up to about 120 µM
Target sequence (P11473 whole entry, looked up): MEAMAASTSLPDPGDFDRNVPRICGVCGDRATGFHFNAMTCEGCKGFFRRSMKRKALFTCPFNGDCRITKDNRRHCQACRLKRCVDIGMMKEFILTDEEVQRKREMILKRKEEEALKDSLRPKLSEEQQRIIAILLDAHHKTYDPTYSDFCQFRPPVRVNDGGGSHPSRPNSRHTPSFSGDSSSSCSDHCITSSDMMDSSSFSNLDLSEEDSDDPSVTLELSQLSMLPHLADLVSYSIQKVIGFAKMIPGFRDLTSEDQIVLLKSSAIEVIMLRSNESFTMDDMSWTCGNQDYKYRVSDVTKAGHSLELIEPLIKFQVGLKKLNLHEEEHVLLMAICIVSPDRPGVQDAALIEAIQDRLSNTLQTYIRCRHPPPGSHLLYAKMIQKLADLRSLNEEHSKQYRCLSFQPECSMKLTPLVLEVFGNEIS
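Reagent solutions, kept cold and dark, are dispensed first; compounds are then pinned in at 23 nl, plates briefly spun, and incubated 2 h at ambient temperature. Inhibition of VDR–SRC2-3 peptide binding is read by fluorescence polarization.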
An asterisk follows results filed as active; ? = inconclusive; & = joins results of further samples. On the % scale 0 is the no-effect control and ±100 the full control effect; potency means the concentration at half of the fitted maximal effect. The list is partial. The share of hits here may be higher or lower than overall.

SMILES	VDR inhibitor
O=C(Cc1ccccc1)Nc1nc(-c2cccc([N+](=O)[O-])c2)cs1	-18%
Cc1ccc(CN2CCC(CNC(=O)Nc3cccc(C)c3C)C2)cc1 (centres undefined)	7%
CCOC(=O)CCCCC(=O)c1[nH]c(=O)[nH]c1Cn1cnc2ccccc21	-10%
Cn1nc(-c2cccnc2)nc2c(=O)n(C)c(=O)nc1-2	-8%
O=C(O)CC/C(=N\NC(=O)CNC(=O)c1ccc(F)cc1)c1ccccc1	-10%
COc1ccc(Cl)cc1Nc1cc(C)nc2ccccc12	-6%
S=C(NCc1ccncc1)Nc1cc(Cl)cc(Cl)c1	24%
Cc1ccc(C(=O)COC(=O)CN2C(=O)C3C4CCC(C4)C3C2=O)cc1[N+](=O)[O-] (centres undefined)	-3%
CCOc1ccc(Nc2nc(N)nc(CSC(=S)N3CCN(c4ccccc4)CC3)n2)cc1	-13%
Cc1nn(CCCC(=O)N2CCc3ccccc3C2)c(=O)c2cc3sccc3n12	-9%
Cc1nc(SC2CC(=O)N(c3ccccc3)C2=O)nc2c1CCCC2 (centres undefined)	-9%
Cc1ccc(S(=O)(=O)N2[C@@H](c3ccc(C(C)(C)C)cc3)C(C(=O)O)=CC[C@H]2c2ccc(Cl)cc2)cc1	?
O=C1[C@@H]2Cc3c([nH]c4ccccc34)C(c3ccc([N+](=O)[O-])cc3)N2C(=O)CN1C1CC1 (some centres undefined)	-10%
O=C(NCCOc1ccccc1Cl)c1ccc2c(c1)S(=O)(=O)c1cc(Cl)ccc1C2=O	-25%
Cc1cccc(N2CC(C(=O)Nc3ccc(S(=O)(=O)NCC4CCCO4)cc3)CC2=O)c1C (centres undefined)	-22%

Five entries from above, ordered by their value in VDR inhibitor, high to low:
SMILES	VDR inhibitor
Cc1ccc(CN2CCC(CNC(=O)Nc3cccc(C)c3C)C2)cc1 (centres undefined)	7%
COc1ccc(Cl)cc1Nc1cc(C)nc2ccccc12	-6%
Cn1nc(-c2cccnc2)nc2c(=O)n(C)c(=O)nc1-2	-8%
Cc1nc(SC2CC(=O)N(c3ccccc3)C2=O)nc2c1CCCC2 (centres undefined)	-9%
CCOC(=O)CCCCC(=O)c1[nH]c(=O)[nH]c1Cn1cnc2ccccc21	-10%

The list continues:
SMILES	VDR inhibitor
COc1ccc(NC(=O)Cn2cnc3sc(C)c(S(=O)(=O)N4CCN(C)CC4)c3c2=O)cc1Cl	-6%
Fc1ccc(Sc2cc(Cl)c(-c3ccccc3)nn2)cc1	11%
CC1(C)CC2CC(C)(CN2CC(O)c2ccccc2)C1 (centres undefined)	2%
CC(C)(C)CC(=O)N1CCN(Cc2ccc3c(c2)OCO3)CC1	-14%
CCOc1ccccc1C(=O)N(Cc1ccco1)C1CCS(=O)(=O)C1 (centres undefined)	12%
CCCN(C(=O)CCc1nc(-c2ccccc2F)no1)c1ccc(CC)cc1	-7%
CN(CCO)c1ccc(/C=N/Nc2nncc3ccccc23)cc1	-42%
Cc1ccc(CNC(=O)c2cc(=O)c3ccccc3o2)cc1	-1%
CC(C)c1ccc(N(CC(=O)N2CCN(Cc3ccccc3)CC2)S(C)(=O)=O)cc1	1%
CC(C)NC(=O)N1CCCC2(CCN(C(=O)c3ccncc3)CC2)C1	2%
O=[N+]([O-])c1cccc(/C=N\N2CCN(c3ccc(Cl)cc3)CC2)c1	16%
COc1cc(NC(=O)c2cc3cc4ccc(C)cc4nc3o2)cc(OC)c1OC	-6%
CC(C)C(NC(=O)OCc1ccccc1)C(=O)NCc1ccc(C(=O)O)cc1 (centres undefined)	-21%
CCOC(=O)COn1c(=O)c(-c2cc3ccccc3o2)[n+]([O-])c2ccccc21	-1%
CCC(=O)Nc1cccc(NC(=O)c2ccccc2Cl)c1	-10%

As a short view, part of the list above:
SMILES	VDR inhibitor
CC(C)NC(=O)N1CCCC2(CCN(C(=O)c3ccncc3)CC2)C1	2%
O=[N+]([O-])c1cccc(/C=N\N2CCN(c3ccc(Cl)cc3)CC2)c1	16%
COc1cc(NC(=O)c2cc3cc4ccc(C)cc4nc3o2)cc(OC)c1OC	-6%
CC(C)C(NC(=O)OCc1ccccc1)C(=O)NCc1ccc(C(=O)O)cc1 (centres undefined)	-21%
CCOC(=O)COn1c(=O)c(-c2cc3ccccc3o2)[n+]([O-])c2ccccc21	-1%
CCC(=O)Nc1cccc(NC(=O)c2ccccc2Cl)c1	-10%

(list continues)
SMILES	VDR inhibitor
Cc1cccc(NC2=C(NC(=O)c3ccccc3)C(=O)c3ccccc3C2=O)c1	?
COCCN(CCOC)S(=O)(=O)c1ccc(C(=O)NC2CCN(Cc3ccccc3)CC2)cc1	5%
N#CCc1c(C#N)c(N)nc(N2CCN(S(=O)(=O)c3ccccc3F)CC2)c1C#N	-13%
Cc1ccc[n+](C(C)C(=O)Nc2ccc(C)c(C)c2)c1 (centres undefined)	4%
COc1ccc(-c2nc3ccccc3c(=O)n2CC(C)C)cc1	-6%
CCN(c1ccccc1)S(=O)(=O)c1ccc(Cl)c(NC(=O)CN2CCN(C)CC2)c1	-9%
CC(C)C(=O)N1CCN(c2nc3ccc(Cl)cc3s2)CC1	-7%
CC(C)C1CC(=O)NC(SCC(=O)Nc2ccc(Br)cc2)=C1C#N (centres undefined)	12%
O=C(c1cnccn1)N1CCC2(CC1)CN(c1cccc(-c3ccccc3)c1)C2	-18%
O=C(CSc1ccccc1)Nc1ccccc1N1CCOCC1	4%
O=C(O)C1=C[C@@H](c2ccc3c(c2)OCO3)C[C@@H](OCc2ccc(CO)cc2)O1	3%
Cc1ccc(NS(=O)(=O)c2ccc3c(c2)NC(=O)C(C)C(=O)N3)c(Cl)c1 (centres undefined)	-2%
Cc1ccc(S(=O)(=O)N2CCN(C(=O)N3CCOCC3)C2C(C)C)cc1 (centres undefined)	18%
C=CCOC(=O)c1ccccc1C(=O)OCC1CO1 (centres undefined)	-2%
COc1cccc2sc(N3CCN(C(=O)C4COc5ccccc5O4)CC3)nc12 (centres undefined)	-11%
Nc1cc(C(=O)OCC(=O)Nc2ccc(N3CCOCC3)cc2)ccc1Cl	8%
O=C1Cc2cc(S(=O)(=O)Nc3cccc(F)c3)ccc2N1	-11%
Brc1ccc2nc(-c3c[nH]c4ccccc34)cn2c1	10%
Clc1cccc(CN2CCSCC2)c1	-3%
COCCn1c(SCC(=O)N2CCC(C)CC2)nc2c([nH]c3ccccc32)c1=O	-15%
CN(Cc1cccc(F)c1)C(=O)c1ccc(S(=O)(=O)N2CCCCCC2)cc1	28%
O=C(CNC(=S)N(Cc1ccccc1)Cc1cccnc1)NCc1ccccc1	-13%
COc1cccc(NC(=O)C(Cc2ccccc2)N2Cc3ccccc3C2=O)c1 (centres undefined)	13%
Nc1cccc2c1C(=O)c1ccc(Cl)cc1C2=O	4%
COc1cccc(C(=O)COC(=O)c2ccc(NC(C)=O)cc2)c1	-15%
O=S(=O)(c1ccc2c(c1)CCCN2)N1CCCCC1	-21%
Cc1ccc(S(=O)(=O)c2ccccc2)cc1S(=O)(=O)N1CCOCC1	12%
COc1ccc(CCc2nnc(CCC(=O)NCCc3ncccc3C)o2)cc1	-19%
O=C(Oc1cccccc1=O)c1ccccc1	14%
CCN(c1ccccc1)S(=O)(=O)c1ccc(OC)c(NC(=O)c2cc(F)c(F)c(F)c2F)c1	3%
COc1ccc(NC(=O)Cn2nnc(C(=O)Nc3ccc(C)c(F)c3)c2N)cc1Cl	5%
CC(=O)NCCOc1cccc(OCCNC(C)=O)c1	-11%
CNc1ncnc2ccc(-c3ccccc3C)cc12	-20%
O=C(CSc1ccc(Cl)cc1)NCc1ccncc1	-18%
CCCN1Cc2cccc(C(=O)NCc3ccc(C)cc3)c2C1=O	-11%
CCCS(=O)(=O)N1CCC(CCOc2ccccc2)(C(=O)OCC)CC1	-10%
Cc1cccc(CNc2ccc(S(=O)(=O)N3CCCCC3)cc2)c1	16%
O=C(COc1ccccc1)Nc1ccc(F)cc1	8%
CC(C)(CO)NC(=O)CC1C(=O)NCCN1CC(c1ccccc1)c1ccccc1 (centres undefined)	-3%
c1ccc(N2CCN(c3ncnc4c3nc3n4CCCC3)CC2)cc1	16%
CC1(C)Cc2c(C#N)c(SCCO)nc(N3CCOCC3)c2CO1	-20%
Cc1ccc(/C=N/NC(=O)Cn2ccc(C(F)(F)F)n2)o1	0%
Cn1c(=O)[nH]c(=O)c2c1nc(NCCCO)n2CCCc1ccccc1	10%
Cc1cc(O)cc2c1C(c1ccc(F)cc1)CC1(CC(C)(C)NC(=S)N1)O2 (centres undefined)	-10%
CN1C(=O)/C(=C/c2ccc(C(=O)NC3CCCC3)cc2)Oc2ccccc21	-7%
O=C(Nc1ccnn1C1CCN(CCCc2ccccc2)CC1)c1ccccc1Cl	-15%
Cc1nn(CC(=O)Nc2ccc(C#N)cc2)c(C)c1[N+](=O)[O-]	-5%
Cc1cc(C)c(NC(=O)c2cc3sc(Cl)cc3n2C)c(C)c1	-11%
CCOc1ccc(/C(O)=C2/C(=O)C(=O)N(c3ncccn3)C2c2ccc(Cl)cc2)cc1 (centres undefined)	?
O=S(=O)(Nc1nc2ccccc2[nH]1)c1ccccc1	-2%
Cc1noc(C)c1CN(C(=S)NC1CC1)c1ccccc1	14%
CC(=O)NCCC(=O)Nc1cc(S(=O)(=O)N2CCCCC2)ccc1Oc1cccc(C)c1	10%
COC(=O)c1cc(NCc2cccs2)ccc1N1CCOCC1	5%
[O-]C(=C(C(=S)Nc1cccc2ccccc12)[n+]1cccc(CO)c1)c1ccc(Cl)s1	-13%
Cc1nc(N)ncc1Sc1ccc(Cl)cc1	-8%
CC(=O)NCCC1CCCCN1C(=O)c1cc(COc2cc(C)ccc2C)on1 (centres undefined)	9%
Cc1ccc2cc3c(nc2c1)OCC3	3%
C=CCc1cc(Cl)ccc1OCCOCCNC(C)(C)C	8%
COc1ccc(NC(=O)CN(C)C(=O)c2ccc3c(c2)OCCO3)cc1	-19%
CCCOc1ccc(C(=O)CCC(=O)OCC(=O)N(C)c2c(N)n(Cc3ccccc3)c(=O)[nH]c2=O)cc1	-15%

Entries shown so far that have a cyano group:
SMILES	VDR inhibitor
N#CCc1c(C#N)c(N)nc(N2CCN(S(=O)(=O)c3ccccc3F)CC2)c1C#N	-13%
CC(C)C1CC(=O)NC(SCC(=O)Nc2ccc(Br)cc2)=C1C#N (centres undefined)	12%
CC1(C)Cc2c(C#N)c(SCCO)nc(N3CCOCC3)c2CO1	-20%
Cc1nn(CC(=O)Nc2ccc(C#N)cc2)c(C)c1[N+](=O)[O-]	-5%

Other results
SMILES	VDR inhibitor
Cc1nc(NC(=O)c2cc3ccccc3o2)sc1C	18%
Cc1ccc(-c2cn3c(n2)SCC3)cc1	-5%
CCOc1ccc(NS(=O)(=O)c2cc(C(=O)N3CC(C)OC(C)C3)ccc2C)cc1 (centres undefined)	-5%
CCOCCn1c(=O)c2c(nc3n2CCN3c2ccc(C)cc2)n(C)c1=O	8%
COc1cc(C(C(=O)NC2CCCCC2)N(CCN2CCOCC2)C(=O)C2COc3ccccc3O2)cc(OC)c1OC (centres undefined)	8%
CCSc1oc(-c2ccc(F)cc2)nc1S(=O)(=O)c1ccc(C)cc1	-6%
CCc1cccc(NC(=O)CCC(=O)N2CCSc3ccccc32)c1	-5%&6%
O=C(Cn1c(=O)oc2cc(S(=O)(=O)N3CCc4ccccc43)ccc21)N1CCCCC1	-15%
CCC1S/C(=N/N=C/c2ccco2)NC1=O (centres undefined)	-17%
Cc1ccc(Nc2nnc(SCC(=O)NCC3CCCO3)s2)cc1C (centres undefined)	-11%
CCC(=O)CC	?
O=C(COC(=O)c1cn(-c2ccccc2)nc1-c1cccs1)NC1CC1	10%
O=C(NCc1ccccc1)C1CCN(S(=O)(=O)c2ccc3c(c2)CCCN3C(=O)C2CCC2)CC1	-4%
O=C(c1c(F)cccc1F)N1CCC(O)(c2ccc(F)cc2)CC1	7%
CCN(C(=O)COc1ncnc2sccc12)c1ccccc1	5%
O=C(OCn1ncc(Br)c(Br)c1=O)c1ccccc1Cl	22µM*
O=C(NCCN1C(=O)C2C3C=CC(C3)C2C1=O)Nc1ccc(Br)cc1 (centres undefined)	8%
CCn1c(SCC(N)=O)nc2c1c(=O)n(C)c(=O)n2C	-4%
CCC(=O)Nc1c(C#N)c2nc3ccccc3nc2n1-c1ccccc1C	-12%
COc1ccc(OC)c(N(CC(=O)Nc2cccnc2)S(=O)(=O)c2ccccc2)c1	4%
O=C(NC(=O)c1cccc(F)c1)OC[C@@H]1CCCN2CCCC[C@H]12	0%
O=C1OCCC1N1C(=O)c2ccccc2S1(=O)=O (centres undefined)	-5%
CCOc1cccc(C(=O)Nc2cccc(C(=O)NCC(C)C)c2)c1	4%
Cc1ccc(OCC(=O)N2CCN(C(=O)c3cccc(F)c3)CC2)cc1	-10%
COc1cc2cc(Oc3ccc4ccc(=O)oc4c3)c(=O)oc2cc1OC1OC(COC(=O)CC(C)(O)CC(=O)O)C(O)C(O)C1O (centres undefined)	-27%
CCN(C(=O)CN1C(=O)NC2(CCc3ccccc32)C1=O)C1CCS(=O)(=O)C1 (centres undefined)	-9%
Cc1nnc(SCc2c(Cl)cccc2Cl)s1	-8%
COc1ccc(N2C(=O)CSC2c2cccc(F)c2)c(OC)c1 (centres undefined)	15%
O=C(Nc1ccc(Cl)c(Cl)c1)N1CCC(c2ccccc2)C1 (centres undefined)	10%
COC(=O)[C@@]12CCCCN1[C@H](c1ccc(SC3CCCCC3)c(OC)c1)[C@@H]1C(=O)N(C)C(=O)[C@@H]12	-1%
CC(=O)N1CCN(C(=O)COC(=O)CNC(=O)c2ccccc2C)CC1	-9%
CCN(CC)CCn1c2ccccc2c2nc3ccc([N+](=O)[O-])cc3cc21	-7%
CCOC(=O)c1sc(NC(=S)NC(=O)c2ccccc2Cl)c(C(=O)OCC)c1C	2%
Cc1ccccc1-c1nnc(SCC(=O)Nc2ccc3c(c2)OCCO3)n1N	-14%
COc1ccc(OC)c(N(CC(=O)O)S(=O)(=O)c2ccc(OC)c(OC)c2)c1	-10%
CSc1ccccc1OCc1cc(C(=O)N2CCCC2c2nonc2C)no1 (centres undefined)	10%
